D2 PAM: human D2 receptor positive allosteric modulation. P14416. DiscoveRx D2 beta-arrestin cells, luminescence, 90 min; 100% = 57 uM dopamine signal. potentiation, % (no concentration beside the values). 360,000 compounds, 0.23% hits. AID 624464; active = potentiation of 50% or more; inconclusive = 30% to 50%; inactive = 30% or less;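 also: compound concentration not given in the record; tested on top of an EC20 dose of dopamine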
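PathHunter beta-arrestin assay in DiscoveRx D2 cells. Compounds were added with an EC20 of dopamine (50 nM final) for 90 min at 37 deg C. Luminescence was read 1 h after detection reagent, with 57 uM dopamine as the EC100 control.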
Six1-Eya2 blk: inhibitors of human Six1/Eya2 interaction; AID 651725; AlphaScreen GST-Six1/His-Eya2 binding, biochemical; hits give low values; control for the full effect not named in the record; activity change, % (no concentration beside the values); 360,000 compounds, 0.56% hits; in the data active = activity change below about -65%; inconclusive = about -30% to -65%; inactive = above about -30%; also: % is scaled to controls: 0 for no effect and ±100 for the full control effect
Target sequence (O00167 whole entry, looked up): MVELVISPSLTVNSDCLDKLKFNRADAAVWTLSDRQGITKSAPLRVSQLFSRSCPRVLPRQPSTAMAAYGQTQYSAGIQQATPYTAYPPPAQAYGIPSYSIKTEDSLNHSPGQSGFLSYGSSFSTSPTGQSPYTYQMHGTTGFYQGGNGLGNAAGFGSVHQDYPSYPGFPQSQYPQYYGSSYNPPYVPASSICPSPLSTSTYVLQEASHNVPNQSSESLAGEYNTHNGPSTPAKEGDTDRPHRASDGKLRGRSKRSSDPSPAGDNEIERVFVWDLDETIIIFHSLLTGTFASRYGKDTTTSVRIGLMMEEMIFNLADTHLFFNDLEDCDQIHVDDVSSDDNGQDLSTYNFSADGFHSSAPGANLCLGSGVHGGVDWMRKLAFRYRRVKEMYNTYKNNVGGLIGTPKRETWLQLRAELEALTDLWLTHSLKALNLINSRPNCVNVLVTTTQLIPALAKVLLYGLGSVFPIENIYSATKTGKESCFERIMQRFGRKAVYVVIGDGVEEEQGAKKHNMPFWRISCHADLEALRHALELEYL
Target sequence (Q15475 whole entry, looked up): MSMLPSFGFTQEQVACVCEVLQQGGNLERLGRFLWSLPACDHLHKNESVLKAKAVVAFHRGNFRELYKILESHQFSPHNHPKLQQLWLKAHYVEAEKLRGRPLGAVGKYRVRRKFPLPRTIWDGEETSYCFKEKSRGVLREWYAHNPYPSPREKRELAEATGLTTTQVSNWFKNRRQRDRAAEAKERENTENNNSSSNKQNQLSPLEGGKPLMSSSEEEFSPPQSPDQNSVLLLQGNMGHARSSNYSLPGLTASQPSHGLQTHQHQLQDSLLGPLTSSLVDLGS
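Compounds are tested against tagged Six1 and Eya2 proteins bridged by glutathione donor and nickel acceptor beads; after a one-hour incubation at 37 °C without light, AlphaScreen emission is recorded.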
gsp agonist: gsp mutant agonism | gsp mutant cells, cAMP HTRF, 30 min; control for the full effect not named in the record | Potency, µM (doses to about 76.9 µM), for the others: top-dose activation (cAMP increase), actives largely listed as activators | 340,000 compounds, 0.13% hits; active = well fitted activation curve with a large enough effect; inconclusive = small, poorly fitted or top-dose-only effect, or another doubt; inactive = no such curve, though single readings can be large or run the other way; cell line not stated here;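 also: phosphodiesterase inhibitor Ro 20-1724 added with compounds to block cAMP breakdown; potency is read from the fitted curve at half-maximal effect; nearly all actives have a fitted effect of over 60% in size; about a fifth of the inactives were tested at one dose only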
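Cells stably selected in G418 were plated at 2000/well, grown 16-24 hr, then given compounds in DMSO with the PDE inhibitor […] (300 uM solution added) for 30 min at 37C; cAMP was read by HTRF.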
gsp antag: antagonists of gsp mutant (McCune-Albright syndrome). gsp-mutant cells, cAMP HTRF, 30 min; control for the full effect not named in the record. AID 624288. Potency, µM (titrated, usually from 76.9 µM), for the others: top-dose activity change, negative = inhibition, hits mostly inhibitors. 340,000 compounds, 0.4% hits; active = falling curve of any shape with a large fitted effect; inconclusive = falling curve, mostly with a smaller effect; inactive = flat or rising curve; cell line not stated here;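 also: intracellular cAMP measured with PDE inhibitor Ro 20-1724 present during compound exposure; potency is read from the fitted curve at half-maximal effect; % is scaled to controls: 0 for no effect and ±100 for the full control effect; nearly all actives have a fitted effect of over 65% in size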
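Measurement of cellular cAMP by homogeneous time-resolved fluorescence following a 30 min compound exposure at 37C. The PDE inhibitor […] was present throughout; the assay buffer was DPBS with 0.05% BSA and 0.005% Tween 20.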
CtBP-E1A blk: CtBP/E1A binding inhibition. AlphaScreen GST-E1A/His-CtBP binding, 1536-well; hits give low values; control for the full effect not named in the record. activity change, % (test concentration not listed). 340,000 compounds, 0.49% hits. AID 651724; in the data active means activity change below about -65%; inconclusive means about -30% to -65%; inactive means above about -30%; also: % is scaled to controls: 0 for no effect and ±100 for the full control effect
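In 5 uL wells, 23 nL compound meets equimolar GST-E1A and His-CtBP (5X stock 125 nM each) for 2 h, 37 °C. Beads (5X, 50 ug/mL) then 1 h, 37 °C, dark.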
D2 agonist: human D2 receptor agonism in beta-arrestin assay; P14416; DiscoveRx PathHunter D2 beta-arrestin, luminescence, 90 min; 100% = 57 uM dopamine signal; activation, % (no concentration beside the values); 360,000 compounds, 0.084% hits; AID 624465; in the data active = activation above about 40%; inconclusive = about 15% to 40%; inactive = below about 15%; also: compound concentration not given in the record; the text of the record calls up to 30% inactive
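DiscoveRx PathHunter D2 beta-arrestin cells (2,100/well) attached overnight, then compound-stimulated 90 min at 37 C in HBSS/10 mM HEPES/0.1% Tween-20 buffer; beta-galactosidase complementation read by luminescence after 1 h at ambient temperature. Dopamine 57 uM final (EC100) as control.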
Starred values were filed as active, the others as inactive; ? = inconclusive; . = no result given; [ ] = remark or other dose.

The line under a structure holds: D2 PAM	Six1-Eya2 blk	gsp agonist	gsp antag	CtBP-E1A blk	D2 agonist
- O=C1c2ccccc2NC(c2cccs2)N1O (stereo not drawn)
→ -5	-9	-1%[15.4 µM]	3%	-2	0.2
- CCCCC(=O)Nc1ccc(C(=O)Nc2ccc(OC)cc2[N+](=O)[O-])cc1
→ 29	-2	-7%	14%	-2	13
- O=C(NCCS(=O)(=O)NCc1ccc(F)cc1)c1ccc2c(c1)OCO2
→ -6	-7	-4%[15.4 µM]	5%	10	-1.8
- c1ccc(Cn2nnc3c(NCc4ccc5c(c4)OCO5)ncnc32)cc1
→ -8	-1	16%	11%	1	-2.0
- Nc1ccc2c(c1)OC1(CCCC1)O2
→ -6	-21	-16%[15.4 µM]	9%	-29	0.9
- CC1CC(C)CN(S(=O)(=O)c2ccc(C(=O)NCc3ccc4c(c3)OCO4)cc2)C1 (stereo not drawn)
→ 19	2	-9%	17%	-10	5.9
- Cc1nnc(CN(C)Cc2cn[nH]c2-c2ccc(-c3ccccc3)cc2)o1
→ -3	5	-7%[15.4 µM]	7%	4	-3.8
- CCOC(=O)N1CCN(C(=O)c2ccc(N(Cc3ccccc3)S(C)(=O)=O)cc2)CC1
→ -3	6	?	-9%	0	-0.7
- Cc1ccc(NC(=O)CN(C)C(=O)COC(=O)C(C)(C)Oc2ccc(Cl)cc2)cc1
→ -20	-1	?	-4%	-3	-0.7
- Cc1nnc(SCC(=O)N(C)c2ccccc2)n1-n1cccc1
→ -7	0	-2%[15.4 µM]	3%	-1	-2.3
- O=C(Nc1ccc2c(c1)C(=O)N(CC1CCCO1)C2=O)c1ccccc1Br (stereo not drawn)
→ -13	1	-95%[inhibitor]	-11%	2	-2.9
- Nc1ncnc2c1nc(SCCO)n2Cc1ccccc1
→ -7	0	-1%[15.4 µM]	3%	19	-3.2
- CCCCC(=O)N(C)c1c(C)nc2ccc(C(=O)N(CC)CCN(C)C)cn12
→ -6	31	.	.	-8	2.0
- CCCOC(=O)CSc1nc(N)c(C#N)c(-c2ccco2)c1C#N
→ 2	-25	-10%[15.4 µM]	10%	-18	2.0
- CN(C)S(=O)(=O)N(CC(=O)NCCSCc1ccccc1)c1ccccc1
→ -5	6	-10%	4%	1	7.5
- Nc1nc(SCC(=O)Nc2cccc(Oc3ccccc3)c2)n[nH]1
→ -6	11	-54%[inhibitor]	6%	.	3.5
- CC(=O)C1=CCC(c2ccc(Cl)cc2)N(S(=O)(=O)c2ccccc2C)C1 (stereo not drawn)
→ -6	0	.	.	5	-9.7
- CCN(CC(=O)NCc1cccs1)C(=O)/C=C/c1ccc(OC)c(OC)c1
→ -8	6	14%	4%	-7	-1.1
- CCC(=O)OCC(=O)C1(OC(=O)CC)[C@H](C)C[C@H]2[C@H]3[C@H]([C@@H](O)C[C@@]21C)[C@@]1(C)C=CC(=O)C=C1C[C@H]3Cl (stereo partly drawn)
→ -11	0	.	6%	8	-6.1
- COc1cc(-c2cc(C(=O)NCc3ccco3)c3ccccc3n2)cc(OC)c1OC
→ -6	0	-15%[15.4 µM]	5%	-1	-7.5
- CCNc1nc(NCC)nc(OCCNS(=O)(=O)c2ccccc2)n1
→ -1	0	16%[15.4 µM]	10%	0	4.2
- CCC1(c2ccccc2)NC(=O)N(CC(=O)N(C)CC(=O)Nc2cccc(OC)c2)C1=O (stereo not drawn)
→ -4	3	-1%	1%	-6	-2.1
- CN(Cc1nc(Cc2cccc(C(F)(F)F)c2)no1)C1CC(C)(C)NC(C)(C)C1
→ -3	-13	-11%	8%	-1	2.7
- COc1ccc(C(=O)NC(=S)Nc2ccccc2N2CCOCC2)cc1Br
→ -9	-20	25%	1%	-1	-5.3
- COCOCCn1cc(CN2CCS(=O)(=O)N(Cc3ccc(-c4ccc(Cl)nc4)cc3)C(CC(C)C)C2=O)nn1 (stereo not drawn)
→ .	2	4%	.	2	0.9
- CCOc1ccc(NC(=O)c2cc3n(n2)C(C(F)(F)F)CC(c2ccco2)N3)cc1 (stereo not drawn)
→ -11	7	-6%	0%	-2	-4.2
- CC1(C(=O)N2CCC(CC3CC(c4ccc(Cl)cc4)=NO3)(C(=O)NCC3CCCCC3)CC2)CC1 (stereo not drawn)
→ -20	11	.	-12%	3	2.2
- CC(Sc1ncccn1)C(=O)NC1(C#N)CCCCC1 (stereo not drawn)
→ -12	1	3%	21%	8	0.8
- COc1cc(NC(=O)Cn2c(=O)n(CC3CCCO3)c(=O)c3ccccc32)cc(OC)c1 (stereo not drawn)
→ -10	4	-4%	-11%	.	-11
- Cc1c(NC(=O)COC(=O)c2cccc(F)c2)c(=O)n(-c2ccccc2)n1C
→ -12	3	-19%	.	-2	-1.5
- CCN(C[C@H]1N[C@@](C)(C(=O)OC)[C@H]2C(=O)N(Cc3ccccc3)C(=O)[C@@H]12)C(=O)Nc1ccc(OC)cc1
→ 3	19	.	8%	0	-0.2
- COc1ccc(C2(C)NC(=O)N(CC(=O)c3ccc4c(c3)OCO4)C2=O)cc1 (stereo not drawn)
→ 1	0	5%	?	8	-8.6
- COc1ccc(NC(=O)CN(C)C(=O)c2ccc3c(c2)S(=O)(=O)N=C2CCCCCN23)cc1
→ -4	2	3%	-11%	5	-3.1
- CC1=CC(C)(C)Nc2ccc(OC(=O)C(Cc3ccccc3)N3C(=O)C4CCCCC4C3=O)cc21 (stereo not drawn)
→ -5	-28	0%	9%	-17	1.6
- COc1ccccc1-c1noc(CCC(=O)Nc2cccnc2)n1
→ -15	0	-45%[inhibitor]	.	4	-1.2
- O=C(c1cccc(S(=O)(=O)N2CCOCC2)c1)N1CCN(C/C=C/c2ccccc2)CC1
→ 3	-2	-2%	1%	3	5.7
- CC(O)CNc1ccc(-c2n[nH]c(=O)c3ccccc23)cc1[N+](=O)[O-] (stereo not drawn)
→ -1	-21	5%	9%	-21	0.5
- CNC(=O)NC(=O)C(C)OC(=O)CCCSc1nc2ccccc2s1 (stereo not drawn)
→ -2	-5	-3%	-4%	-9	-0.2
- O=C(Nc1nn[nH]n1)c1ccc(S(=O)(=O)N2CCCCC2)cc1
→ -4	0	-6%	11%	.	1.4
- CCOc1ccccc1N1CCN(C(=O)c2cc3cc(OC)ccc3[nH]2)CC1
→ -8	-12	0%	-13%	0	5.7
- S=c1[nH]c(-c2ccccc2)cn1-c1ccccc1
→ -7	-8	?	-12%	-15	?
- COc1ccc([C@@H]2[C@@H]3C(=O)N(C(C)(C)C)C(=O)[C@@H]3[C@]3(CC(C)C)C(=O)N(c4cccc(Br)c4)C(=O)N23)cc1
→ -19	2	-4%	-2%	-19	-1.6
- COc1ccc(-n2ncc3c(NCCN4CCOCC4)ncnc32)cc1
→ 5	-4	7%	12%	-6	-0.6
- Cc1c(Cc2ccccc2)c(=O)oc2cc(OCC(=O)N3CCC(C(N)=O)CC3)ccc12
→ -20	-1	.	-4%	1	-3.6
- COc1cccc(C2C(C(N)=O)=C(C)Nc3nc(-c4cccc(Cl)c4)nn32)c1 (stereo not drawn)
→ 4	3	2%	1%	-1	-2.4
- CCN1C(=O)N[C@@H](c2ccc(Br)cc2)C(C(=O)OC)=C1C
→ -7	-5	3%	-4%	1	-0.2
- CC1COC(c2cccn2Cc2ccccc2Cl)=N1 (stereo not drawn)
→ -2	-4	13%	?	-4	-2.8
- Cc1nc(CS(=O)(=O)c2ccccc2)cc(Sc2ccc(Cl)cc2)n1
→ 4	-5	1%	5%[15.4 µM]	-5	-2.7
- Cc1c(OCC(=O)NCCCN2CCOCC2)ccc2c(-c3ccccc3)cc(=O)oc12
→ -5	3	?	-7%	1	-0.7
- COC(=O)c1ccc(Oc2c(C)oc3c(CN4CCN(C)CC4)c(O)ccc3c2=O)cc1
→ -10	0	0%	-4%	1	-1.2
- CCN(c1ccc(NC(=O)COC(=O)CCc2cc(OC)c(OC)c(OC)c2)cc1)C(C)C
→ -7	-7	-30%	-5%	.	-5.5
- CCc1nc2ccccc2c(C(=O)OCC(=O)N(CCOC)c2c(N)n(Cc3ccccc3)c(=O)[nH]c2=O)c1C
→ -39	-6	-46%[inhibitor]	-7%	2	-8.3
- CC1(C(=O)NS(=O)(=O)Cc2ccccc2C(F)(F)F)CCN1C(=O)C/C=C/c1ccccc1 (stereo not drawn)
→ 7	6	.	.	2	3.7
- COC(=O)c1cc(NS(=O)(=O)c2ccc3c(c2)CCC(=O)N3)cc(C(=O)OC)c1
→ -7	2	1%	5%	-3	0.3
- COc1ccc(-n2c(SCC3CNC(=O)O3)nnc2-c2ccc(Cl)cc2)cc1 (stereo not drawn)
→ -5	-1	-7%	?	.	2.2
- COc1ccc(-c2cnc3c(NC(C)=O)cc(-c4cccc(C(=O)NCCO)c4)cn23)cc1OC
→ -5	-17	.	.	-13	6.6
- Cc1cc(C(=O)O)sc1C
→ -10	0	4%	-1%	-3	-2.6
- c1ccc2c(c1)c1c3n2CCNC3CCC1 (stereo not drawn)
→ -18	-20	-15%	-8%	-9	6.6
- CN(C)S(=O)(=O)Oc1cc(Cl)ccc1C(=O)Nc1ccc(F)cc1F
→ -4	1	10%[15.4 µM]	4%	-7	-4.2
- CC(C)=N/N=C1/NC(=O)C(Cc2ccccc2)S1 (stereo not drawn)
→ -6	2	0%	4%	-19	-6.0

The results go on:
The line under a structure holds: D2 PAM	Six1-Eya2 blk	gsp agonist	gsp antag	CtBP-E1A blk	D2 agonist
- S=C(NCc1ccccc1)Nc1ccc2cn[nH]c2c1
→ -1	-1	27%[15.4 µM]	11%	-1	-0.9
- O=C(CC1(CC(=O)N2CCOCC2)CCCC1)Nc1ccccc1
→ -1	0	-25%	4%	3	-0.1
- COc1cc(C(=O)OCC(=O)NCCCc2ccccc2)ccc1OCC(C)C
→ 9	4	29%	-2%	9	5.4
- Cc1noc(C)c1COC(=O)C1CCN(S(=O)(=O)c2c(Cl)cccc2Cl)CC1
→ -4	-11	23%[15.4 µM]	-11%	-11	?
- O=[N+]([O-])c1cccc(NNS(=O)(=O)c2ccccc2F)c1
→ 28	-1	11%[15.4 µM]	3%	-9	8.0
- CCCN(CCC)C1CC(=O)N(Cc2ccccc2)C1=O (stereo not drawn)
→ 0	1	-59%[inhibitor]	9%	5	0.5
- CN1CCN(c2ccc(Cl)cc2NS(=O)(=O)c2ccccc2Cl)CC1
→ -44	-4	-8%	-17%	-6	-2.3
- O=C(O)[C@H](Cc1ccccc1)N1C(=O)c2ccncc2C1=O
→ -14	1	1%	10%	-1	-3.4
- N#Cc1c(-c2ccc(F)cc2)nc(-c2ccccc2)[nH]c1=O
→ -4	4	2%	10%	.	1.5

Complete entries as entered above. Order of screens: D2 PAM, Six1-Eya2 blk, gsp agonist, gsp antag, CtBP-E1A blk, D2 agonist
`Cc1noc(C)c1COC(=O)C1CCN(S(=O)(=O)c2c(Cl)cccc2Cl)CC1` across the screens: -4, -11, 23%[15.4 µM], -11%, -11, ?
`O=C(O)[C@H](Cc1ccccc1)N1C(=O)c2ccncc2C1=O` across the screens: -14, 1, 1%, 10%, -1, -3.4
`COc1cc(C(=O)OCC(=O)NCCCc2ccccc2)ccc1OCC(C)C` across the screens: 9, 4, 29%, -2%, 9, 5.4
